Screens from PubChem BioAssay.
B2AR ag – agonists of human beta-2 adrenergic receptor inducing internalization; P07550; Am2.2-beta2AR cells, FAP receptor internalization, flow cytometry; reference of the scale not given here; response, % (no concentration beside the values); hit rate 0.43% among 340,000;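 active = response above a set limit, near 3 SD of response in nonfluorescent compounds, cut at about 42% in these data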;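 note: stock transfer was 100 nL into about 11 µL; a reference agonist was the positive control; negative values mostly stem from fluorescent compounds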
Target sequence (P07550 whole entry, looked up): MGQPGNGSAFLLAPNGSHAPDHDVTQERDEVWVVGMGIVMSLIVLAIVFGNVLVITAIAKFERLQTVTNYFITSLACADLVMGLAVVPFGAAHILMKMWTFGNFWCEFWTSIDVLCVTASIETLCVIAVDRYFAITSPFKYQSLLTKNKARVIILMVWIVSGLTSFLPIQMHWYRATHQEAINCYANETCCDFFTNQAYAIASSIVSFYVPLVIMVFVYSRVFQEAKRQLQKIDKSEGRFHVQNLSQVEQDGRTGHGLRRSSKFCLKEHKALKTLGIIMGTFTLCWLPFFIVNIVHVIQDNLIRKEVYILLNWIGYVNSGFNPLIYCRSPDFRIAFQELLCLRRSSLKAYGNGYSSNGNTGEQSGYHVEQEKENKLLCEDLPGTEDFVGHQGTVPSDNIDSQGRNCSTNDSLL
LANA-H2A inh – blocks KSHV LANA binding to histone H2A/H2B. inhibition, % (no concentration beside the values). AID 2629. hit rate 0.6% among 320,000. cell-free LANA-H2A/H2B peptide, fluorescence polarization; in the data active = inhibition mostly above about 10%, no sharp cut-off; inactive = mostly below about 6.7%;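 note: stock transfer was 7.5 nL into about 10 µL; 0% = median of vehicle wells and 100% = median of positive control wells; one replicate is shown; the record names a cut of 25% in any replicate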
Bfl-1 A1 inh – inhibitors of the anti-apoptotic protein A1, read as caspase activation. caspase activation, % (no concentration beside the values). MEF A1-2A-BIM cells, Caspase-Glo 3/7 luminescence, 3 h; percent of clofoctol response, vehicle zero. hit rate 0.066% among 330,000;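 active = over half of replicate activation scores above 10%, or exactly half above 10 with the replicate mean above 10; inconclusive = replicate mean below 10 yet half the replicates above 10; inactive = over half of replicates below 10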;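 note: wells of about 30 µL received 50 nL stock; many hits fall short of the cut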
T cruzi repl – T. cruzi replication inhibition. AID 1885. T. cruzi beta-gal in NIH3T3, luminescence, 90 h. hit rate 1.4% among 300,000. inhibition, % (concentration not given with the values);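 active = mean inhibition across valid replicates above about 55%, limit read from the data; inconclusive = mean below that limit but half or more replicates reach it; inactive = mean below it, under half of replicates reach it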;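 note: signal also drops with host cell toxicity which is not excluded here; 0% = plate median of DMSO wells and 100% = zero luminescence signal; higher percent means less beta-gal luminescence so fewer parasites; stock transfer was 50 nL into about 50 µL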
UCH37 inh – blocks the human deubiquitinase UCH37 | Q9Y5K5 | purified proteasome/UCH37, Ub-AMC cleavage fluorescence | inhibition, % (concentration not given with the values) | hit rate 0.33% among 330,000 | AID 588478;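 active = mean of two replicates above 20%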;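 note: 0% = compound-free wells with enzyme and 100% = wells lacking proteasome; stock transfer was 100 nL into about 20 µL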
Target sequence (Q9Y5K5 whole entry, looked up): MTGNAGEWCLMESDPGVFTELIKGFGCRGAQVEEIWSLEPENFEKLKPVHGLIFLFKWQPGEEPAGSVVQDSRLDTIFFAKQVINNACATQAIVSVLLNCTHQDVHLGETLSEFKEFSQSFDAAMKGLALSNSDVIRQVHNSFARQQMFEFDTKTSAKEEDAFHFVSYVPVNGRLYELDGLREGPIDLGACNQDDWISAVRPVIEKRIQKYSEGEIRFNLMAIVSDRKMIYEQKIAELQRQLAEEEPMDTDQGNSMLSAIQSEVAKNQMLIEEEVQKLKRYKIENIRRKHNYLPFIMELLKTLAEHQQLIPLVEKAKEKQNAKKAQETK
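assay system = human UCH37 enzyme supplied as purified proteasome complex | amount = proteasome at 0.15 nM in the dispensed enzyme solution | schedule = 30 min compound-proteasome preincubation then 25 min substrate reaction, room temperature | measured by = fluorescence, ex 355 nm, em 460 nm | benchmarks = no-proteasome wells (full inhibition) and compound-free wells (no inhibition)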
RanGTP-Imp inh – disruptors of Ran-importin-beta complex formation – biochemical, FRET, CFP-Ran, YFP-importin-beta, homogeneous, primary screen | inhibition, % (test concentration not listed) | cell-free CFP-Ran/YFP-importin-beta FRET ratio | hit rate 1.1% among 300,000;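 active = most replicates above 15%; inconclusive = exactly half above 15%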;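 note: 0% = DMSO wells and 100% = Ran loaded with GDP instead of GTP; wells of about 40 µL received 100 nL stock; the first replicate is given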
Calb FLC – C. albicans growth modulation with fluconazole | C. albicans CaCi-2 (fluconazole-resistant clinical isolate) + fluconazole, Alamar Blue growth, 48 h | hit rate 0.57% among 300,000 | growth inhibition, % (concentration not given with the values) | AID 1979;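 active = most replicates above 75%; inconclusive = exactly half above 75%; inactive = most below 75%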;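 note: all wells also contain fluconazole at 8 µg/ml as a sub-toxic cotreatment; 0% = median of DMSO wells and 100% = median of geldanamycin control wells; wells of about 8 µL received 7.5 nL stock; the first replicate is given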
Beta cell apopt – blocks beta cell apoptosis. INS-1E cytokine-induced death, ATP luminescence, 48 h; percent of positive-control rescue, neutral wells zero. protection from apoptosis, % (test concentration not listed). hit rate 0.8% among 300,000. AID 435005;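 active = all replicates at 75% or more, or half of them and the mean; inconclusive = half reach 75% but not the mean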;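 note: 0% = cytokine-treated negative control wells and 100% = positive control rescue; higher means more ATP so stronger rescue from cytokine killing; wells of about 40 µL received 100 nL stock; the first replicate is given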
* marks the source's active call; other numbers are inactive results; ? = inconclusive; nt = no result given. Outcome played no part in choosing rows; overall some 4.3% were active at least once.

Every second line gives: B2AR ag	LANA-H2A inh	Bfl-1 A1 inh	T cruzi repl	UCH37 inh	RanGTP-Imp inh	Calb FLC	Beta cell apopt
1. CCC(=O)Nc1ccc2nc(SCC(=O)N3CCOCC3)sc2c1
  -6	1.6	-0.3	-2	2.8	9.1	-6	-6
2. O=C(O)Cn1cc(/C=C2/SC(=O)N(CC(=O)N3CCCCCC3)C2=O)c2ccccc21
  nt	5.3	-1.1	-13	9.5	17*	9	-3
3. COc1ccc(NC(=O)c2ccc3c(c2)n(C)c(=O)n3C)cc1
  5	-0.2	-1.1	2	1.5	2.5	0	nt
4. COc1cccc(OC)c1C(=O)NC(=S)Nc1cc(-c2nc3ccccc3[nH]2)ccc1Cl
  3	1.3	-0.9	49	1.7	1.9	1	16
5. Cc1sc2ncnc(N3CCN(Cc4ccccc4)CC3)c2c1-c1ccc(F)cc1
  12	-2.4	-0.8	30	0.5	6.4	5	nt
6. Cc1c(NC(=O)C(=O)/C=C(\O)c2ccc(Cl)cc2)c(=O)n(-c2ccccc2)n1C
  1	0.3	0.2	-16	nt	-1.7	-1	-6
7. O=C(Nc1cccc(S(=O)(=O)N2CCOCC2)c1)c1cn(-c2ccccc2)nc1-c1ccc(F)cc1
  -19	-3.0	0.0	57*	4.1	6.5	0	14
8. CCOC(=O)c1c(NC(=O)c2ccc(S(=O)(=O)N3CCOCC3)cc2)sc2c1CCN(C(C)C)C2
  13	-3.9	0.1	35	-2.6	7.0	-18	1
9. COc1ccc(NC(=O)CSc2nnnn2C2CCCC2)cc1
  -3	8.8	-0.2	5	0.8	7.4	14	6
10. CCN=C1SCC(=O)N1c1ccc(OC)cc1
  -4	1.1	0.0	-3	3.1	-2.5	-9	12
11. COC(=O)Cc1ccc(NC(=S)NCCCO)cc1
  3	2.9	2.2	-8	2.1	1.4	30	0
12. COc1ccc(CNC(=O)c2nn(-c3ccccc3)cc2OC)cc1
  -19	2.1	-0.2	18	-3.8	-0.7	0	-4
13. CC(C)CCNC(=O)NC(=O)CSc1nnc2ccccn12
  2	-2.0	1.1	13	-0.4	4.6	7	-4
14. Oc1cccc(/C=N/N(Cc2ccccc2)c2ccccc2)c1
  1	4.8	-0.2	-3	nt	-2.0	-4	-1
15. N#C/C(=C\c1ccc(Cl)c([N+](=O)[O-])c1)c1ccccn1
  -6	1.0	-0.3	26	3.9	0.3	51	4
16. CC1CCCC(C)N1C(=O)COC(=O)C(Cc1ccccc1)NC(=O)c1cccs1 (stereo unspecified)
  -1	9.5	0.2	-10	5.0	0.0	-13	0
17. CC1CCN(c2cc(N3CCOCC3)c(F)cc2[N+](=O)[O-])CC1
  -12	0.7	-0.3	33	0.8	6.3	4	6
18. COc1ccc(-c2nc3ccccc3n2Cc2ccccc2)cc1
  -4	0.4	-0.5	38	3.8	11	-3	-4
19. O=C(NC(=O)N1CCN(c2cccc(Cl)c2)CC1)c1ccccc1
  -8	-1.0	-0.1	-26	5.2	1.5	21	5
20. CCN(C(=O)CN1c2ccccc2CC1C)c1c(N)n(Cc2ccccc2)c(=O)[nH]c1=O (stereo unspecified)
  -6	1.4	1.0	9	-0.8	9.7	8	-1
21. COc1ccc(/C=C(\C#N)C(=O)Nc2cc(S(=O)(=O)N3CCOCC3)ccc2N2CCCC2)cc1
  3	0.6	1.3	-12	6.6	1.2	-1	-6
22. O=C(Nc1cccc(F)c1)NC1CCN(Cc2ccccc2)CC1
  4	1.4	0.1	60*	5.1	4.5	-1	-5
23. O=C(CN1CCN(S(=O)(=O)c2ccc(Cl)cc2)CC1)Nc1ccc2c(c1)OCO2
  11	1.4	0.2	1	3.6	-8.4	1	0
24. N#C/C(=C(/O)CO/N=C/c1ccccc1Cl)c1nc2ccccc2[nH]1
  9	-1.8	0.3	-2	nt	2.6	3	19
25. O=C(Cc1ccc(Cl)cc1Cl)NC1CCCCCC1
  -2	-1.3	1.0	3	1.7	1.3	2	0
26. COC(=O)CN(c1ccc(C)cc1)S(=O)(=O)c1ccc2c(c1)n(C)c(=O)c(=O)n2C
  1	2.6	0.2	1	1.1	1.4	-13	-4
27. C=CC[C@@H](CC(=O)N[C@H](CO)Cc1ccccc1)C(=O)N[C@@H](COC(=O)[C@@H](CC=C)Cc1ccc(F)cc1)Cc1c[nH]c2ccccc12
  -3	-2.4	0.2	nt	-1.7	nt	nt	2
28. COc1ccc(S(=O)(=O)NNC(=O)C2CC(c3cccnc3)=NO2)cc1 (stereo unspecified)
  2	5.4	0.1	6	2.2	nt	-2	-1
29. OCC1(Cc2ccc(Cl)cc2)CCN(Cc2ccc(Oc3ncccn3)cc2)CC1
  5	10	0.4	59*	1.0	-2.7	-7	-1
30. Cc1ccc(C(=O)NCCC(=O)NCc2cc(=O)n(C)c(=O)n2C)cc1
  9	3.1	-0.4	-9	-3.1	1.6	-4	-5

Next section, starting with the last 4 of the part before.
Every second line gives: B2AR ag	LANA-H2A inh	Bfl-1 A1 inh	T cruzi repl	UCH37 inh	RanGTP-Imp inh	Calb FLC	Beta cell apopt
27. C=CC[C@@H](CC(=O)N[C@H](CO)Cc1ccccc1)C(=O)N[C@@H](COC(=O)[C@@H](CC=C)Cc1ccc(F)cc1)Cc1c[nH]c2ccccc12
  -3	-2.4	0.2	nt	-1.7	nt	nt	2
28. COc1ccc(S(=O)(=O)NNC(=O)C2CC(c3cccnc3)=NO2)cc1 (stereo unspecified)
  2	5.4	0.1	6	2.2	nt	-2	-1
29. OCC1(Cc2ccc(Cl)cc2)CCN(Cc2ccc(Oc3ncccn3)cc2)CC1
  5	10	0.4	59*	1.0	-2.7	-7	-1
30. Cc1ccc(C(=O)NCCC(=O)NCc2cc(=O)n(C)c(=O)n2C)cc1
  9	3.1	-0.4	-9	-3.1	1.6	-4	-5
31. COc1ccc([C@@H]2C[C@H](c3ccccc3)Oc3cc(OC)c(OC)c(OC)c32)cc1
  3	1.1	0.2	25	4.9	-2.9	13	8
32. Cc1ccc(C)c(S(=O)(=O)Nc2cc3c4c(c2)CCN4C(=O)CC3)c1
  0	-4.1	1.1	1	2.8	-0.1	18	2
33. Cc1ccc(C(C(=O)NC(C)(C)C)N(C(=O)c2csnn2)c2cccc(F)c2)o1 (stereo unspecified)
  -2	-1.5	0.0	-9	5.1	-4.0	7	-7
34. O=C1N=C(N2CCCC2)S/C1=C\c1ccccc1
  -61	0.3	-1.3	8	12	-3.4	10	3
35. O=C(O)C(Cc1c[nH]c2ccccc12)NS(=O)(=O)c1ccc(Cl)cc1 (stereo unspecified)
  -2	2.5	-0.4	2	1.4	2.1	-7	-9
36. C#CCOC(=O)c1ccccc1C(=O)N(CC)CC
  4	0.7	0.2	-15	0.5	2.7	33	-2
37. CCOC(=O)Cn1c(=NC(=O)CC)sc2c(C)cc(C)cc21
  -3	5.5	-0.3	3	0.9	-5.5	-8	2
38. CCOc1ccc(S(=O)(=O)N2CCC(C(=O)N3CCN(c4ccccc4F)CC3)CC2)cc1C
  -6	-6.6	0.8	5	0.9	?	0	4
39. O=C1CC[C@@H](CN(Cc2ccccn2)Cc2nc(Cc3ccccc3)no2)N1
  7	-2.2	0.8	-8	0.5	-0.1	-8	nt
40. CCCOc1cc(C)c(S(=O)(=O)NC2CC(C)(C)NC(C)(C)C2)cc1C
  -11	-1.7	-0.4	10	5.2	-0.7	-1	-14
41. O=C(OCc1nc(-c2ccccc2Cl)no1)c1ccco1
  7	5.8	0.0	nt	1.1	nt	nt	-11
42. Cc1cccc(N)c1-c1c(C)cccc1N
  3	-1.4	-0.4	-12	4.6	?	-7	-1
43. CC(C)(C)C(=O)Nc1ccc(C(=O)N/N=C/c2ccccc2OC(=O)c2ccc(Cl)cc2)cc1
  -14	-3.8	0.4	-13	nt	2.0	1	103*
44. O=C(COc1ccccc1)NCC(=O)Nc1cccc(S(=O)(=O)NC2=NCCC2)c1
  11	0.0	0.0	-18	3.0	-3.2	2	-1
45. O=C(COC(=O)/C=C/c1ccc(S(=O)(=O)N2CCOCC2)cc1)NC1CCCCCCC1
  4	2.1	0.0	-1	2.2	-3.8	-2	-6
46. CCCn1c(=O)c2[nH]cnc2n(-c2ccc(Cl)cc2)c1=O
  2	-0.4	-0.3	-4	1.8	-0.9	-4	-4
47. CCOC(=O)C1(CCOC)CCN(CC(C)Cc2ccc3c(c2)OCO3)CC1 (stereo unspecified)
  -5	-4.9	-0.5	9	1.6	0.5	-2	-4
48. CCN(CC)S(=O)(=O)c1cccc(NC(=O)CNc2cccc(S(=O)(=O)N3CCOCC3)c2)c1
  -8	-7.8	-0.4	11	nt	-1.5	-7	56
49. Cc1ccccc1/C=N/Nc1nc2ccccc2c(=O)n1O
  1	-5.6	0.9	6	nt	4.6	-30	3
50. CCCc1oc(C(=O)O)cc1CN1CCOCC1
  7	-4.3	-0.2	-20	3.5	?	4	-1
51. O=C(NCCc1ccc(Cl)cc1)C(=O)c1c[nH]c2ccccc12
  -1	1.3	-0.2	2	5.1	5.9	-9	2
52. N#C/C(=C\c1ccc(Cl)cc1Cl)c1n[nH]c(Cn2cncn2)n1
  -3	-5.8	-0.2	-14	1.9	-3.6	2	-3
53. COc1ccnc(NCc2ccc(Cl)cc2)c1C#N
  4	3.9	0.6	-4	-8.2	1.1	-18	nt
54. COCCn1c(=S)[nH]c2cc(C(=O)N3CC(C)CC(C)C3)ccc2c1=O (stereo unspecified)
  3	-8.7	0.3	-4	5.7	2.7	26	3
55. Cc1cccc(C(=O)N(Cc2ccc(C)o2)C2CCS(=O)(=O)C2)c1 (stereo unspecified)
  0	-0.9	-0.4	-7	-1.2	3.1	7	-1
56. CC(OC(=O)CC(NC(=O)c1ccccc1Cl)c1ccccc1)C(=O)Nc1cccc(Cl)c1Cl (stereo unspecified)
  4	5.0	0.8	8	4.5	0.4	11	0
57. CNC(=O)[C@H](C)[C@@H]1C[C@@]1(C)[C@@H](NC(=O)OCc1ccccc1)c1ccccc1
  0	3.1	3.0	-3	1.1	-6.5	-4	10
58. COCCn1cnnc1SCC(=O)Nc1cc(C)on1
  -2	4.2	-1.3	nt	4.2	nt	nt	-4
59. COc1ccc(-c2ncncc2-c2ccc(OC)c(OC)c2)c(O)c1
  -5	-0.1	-0.8	-8	7.2	5.2	6	-9
60. O=C(NCCCN1CCOCC1)c1cc(-c2ccc(O)cc2)on1
  13	0.3	1.0	7	1.1	4.0	-5	6
61. O=S(=O)(Cc1ccccc1)N1CCC(N2CCN(c3ccccc3)CC2)CC1
  4	-2.9	-0.7	11	-0.6	-3.3	-3	8
62. CCOC(=O)CN1N=C(c2ccc(Cl)s2)CSC1=O
  2	-2.5	0.9	10	3.5	0.4	6	-1
63. CCCn1c(SCC(=O)Nc2ccc(Cl)cc2)n[nH]c1=O
  -7	1.0	0.7	-2	5.5	2.2	0	0
64. CCOc1ccc(C(=O)NC(C(=O)NCCc2ccc(OC(F)F)cc2)C(C)C)cc1 (stereo unspecified)
  20	-5.2	1.2	-2	2.4	0.4	-6	0
65. COC(=O)c1ccccc1SC1CC(=O)N(c2ccccc2)C1=O (stereo unspecified)
  9	2.5	0.5	-5	0.5	1.8	-15	-2
